Screens: PubChem, several laboratories
GALR2 ag: agonists of human galanin receptor 2 (GALR2); O43603; GALR2-expressing cells, agonist activation read-out; activation, %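 (tested at 5 µM)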; hit rate 0.48% among 140,000; AID 803;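 active means above mean plus 3 SD of all compounds, about 5% in these data, not always enough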;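 further: 0% = vehicle buffer wells and 100% = reference agonist at full effect; tested in CHO reporter cells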
Target sequence (O43603 whole entry, looked up): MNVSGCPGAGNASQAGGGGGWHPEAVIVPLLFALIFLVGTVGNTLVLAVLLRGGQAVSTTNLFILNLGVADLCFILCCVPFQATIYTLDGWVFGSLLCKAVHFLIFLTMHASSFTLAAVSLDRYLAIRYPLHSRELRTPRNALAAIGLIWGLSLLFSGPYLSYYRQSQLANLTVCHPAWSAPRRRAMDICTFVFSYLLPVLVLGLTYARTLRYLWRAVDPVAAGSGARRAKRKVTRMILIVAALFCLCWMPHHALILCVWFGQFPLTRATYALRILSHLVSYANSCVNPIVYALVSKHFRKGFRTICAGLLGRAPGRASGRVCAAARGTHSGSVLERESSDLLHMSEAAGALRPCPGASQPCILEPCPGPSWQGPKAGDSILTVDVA
HSV augment: HSV replication enhancement | HSV replication augmentation in cells, fold increase | maximum fold increase | hit rate 0.005% among 220,000 | AID 1956;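 active means peak rise of 1.5-fold or more in the series; tested in PC3 cells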;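 further: first round at 10 µM; read as green reporter fluorescence; hits show the peak of a series up to 25 µM; 1 = signal of infected wells without compound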
PKD1 inh: blocks activity of human protein kinase D1 | PKD1 kinase fluorescence polarization assay | inhibition, %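 (about 10 µM by stock and volumes)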 | Q15139 | hit rate 0.056% among 200,000;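 active means inhibition of 50% or more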;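 further: controls were vehicle for no effect and a reference inhibitor for full effect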
Insulin prom inh: TRM-6 insulin promoter activity inhibition; TRM-6 cells (human fetal islet line), insulin promoter-eGFP reporter, imaging; reporter expression induced with tamoxifen; inhibition, % at 2 µM; hit rate 0.9% among 130,000;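 active means inhibition above the mean plus 3 SD, with well images judged a real hit on visual review, cut at about 60% in these data, passing the limit was not always enough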
RGS16-Gao HTS: RGS16-Galphao interaction regulator (human). hit rate 0.38% among 220,000. binding response (% of control), % at 10 µM. bead-based flow cytometry RGS16-Galphao binding, fluorescence; actives lie on both sides. O15492+P09471;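 active means below 25% or above 175%, edge rows of some plates excepted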;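 further: Galphao activated by GDP with aluminum fluoride before binding; 100% = wells without compound and 0% = beads without RGS; some results beyond the cut were filed as inactive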
Target sequence (O15492 whole entry, looked up): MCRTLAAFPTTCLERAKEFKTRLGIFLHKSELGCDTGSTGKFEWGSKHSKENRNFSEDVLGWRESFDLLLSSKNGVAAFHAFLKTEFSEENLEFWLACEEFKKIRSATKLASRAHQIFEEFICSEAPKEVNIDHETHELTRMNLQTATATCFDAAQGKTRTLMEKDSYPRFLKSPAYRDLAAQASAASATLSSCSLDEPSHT
Target sequence (P09471 whole entry, looked up): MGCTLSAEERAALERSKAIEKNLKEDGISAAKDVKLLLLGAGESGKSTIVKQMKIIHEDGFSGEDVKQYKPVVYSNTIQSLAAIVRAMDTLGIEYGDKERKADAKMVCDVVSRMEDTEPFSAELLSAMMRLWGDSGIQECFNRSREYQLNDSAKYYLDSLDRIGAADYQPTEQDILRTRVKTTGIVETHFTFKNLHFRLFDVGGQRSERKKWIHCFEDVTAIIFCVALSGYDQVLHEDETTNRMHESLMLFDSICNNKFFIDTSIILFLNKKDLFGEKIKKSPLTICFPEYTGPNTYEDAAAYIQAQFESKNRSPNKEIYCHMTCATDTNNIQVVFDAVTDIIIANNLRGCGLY
Insulin prom inh cell count: further read-out of Insulin prom inh, marked with its call; normalized cell count, %; measured here: cell count, toxicity; reference of the scale not given here;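 cells exposed to compound for 48 h; stained nuclei by imaging scaled within each plate; lower means fewer cells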
HSV augment primary fold: also measured in HSV augment; calls as there; fold increase; compound at 10 µM; measured here: primary screen fold increase 10 uM; tested in PC3 cells;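 GFP signal in the first replicate; 1 = infected wells without compound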
* = called active by the depositor; i = inactive; . = not tested or not shown.

SMILES	GALR2 ag	HSV augment	HSV augment primary fold	PKD1 inh	Insulin prom inh	Insulin prom inh cell count	RGS16-Gao HTS
CC1=C(C(=O)Nc2cccnc2)C(c2ccc(C(C)C)cc2)n2ncnc2N1 (configuration not stated)	-1.2	i	0.99	-7.7	.	.	102.3
Cc1cccc(C)c1NC(=O)C(c1ccc([N+](=O)[O-])cc1)N1CCCCC1 (configuration not stated)	-0.4	i	0.73	-11.3	.	.	96.8
C#CCn1c(C)cc(C)c(S(=O)(=O)c2ccccc2)c1=O	.	i	0.88	-6.3	.	.	97.8
C=CCOC(=O)C1=C(C)Nc2ncnn2C1c1cc(Br)ccc1F (configuration not stated)	-4.3	i	0.93	-13.2	50.0	102.9	103.3
O=C(O)CCC(=O)NN1C(=O)c2ccccc2NC1c1ccco1 (configuration not stated)	.	i	0.98	.	.	.	99.0
Cc1nc(N2CCN(c3ccccc3)CC2)nc2c1C(=O)CC(C)C2 (configuration not stated)	-3.2	i	0.93	1.6	.	.	118.5
CCCCC(=O)Nc1ccc(C(=O)NCC(=O)OC)cc1	-0.8	i	0.97	-17.1	17.5	85.7	90.5
O=C(NC1CC1)C1=C[C@@H](c2csc3ccccc23)C[C@@H](OCCCCO)O1	.	i	0.91	.	.	.	88.8
CC(=O)Nc1ccc(NC(=O)CN(c2ccccc2Cl)S(C)(=O)=O)cc1	-2.1	i	0.98	-0.7	45.0	138.0	41.3
COc1ccc2nc(NC(=S)N(C)C)sc2c1	-1.7	i	1.04	-8.2	46.1	95.6	82.7
Cc1cc(S(=O)(=O)N2CCC(NC(=O)C34CC5CC(CC(C5)C3)C4)CC2)ccc1-n1cnnn1	-0.2	i	0.86	-11.0	-29.4	86.9	100.5
Cc1ccc2[nH]c(=O)c3cc(C(=O)NCC4CCCO4)sc3c2c1 (configuration not stated)	.	i	0.96	0.3	.	.	105.8
CSc1nc2ccc(S(=O)(=O)N(C)C)cc2s1	-0.6	i	0.72	-7.4	-3.3	148.6	103.5
CCN(c1ccccc1)S(=O)(=O)c1ccc(C(=O)Oc2ccc(C(C)=O)cc2)cc1	-0.6	i	0.99	-1.6	-35.1	125.1	101.8
Cc1ccccc1-c1nc(P(=O)(c2ccccc2)c2ccccc2)c(N2CCOCC2)o1	.	i	1.18	.	.	.	99.9
O=C(Nc1cc(F)ccc1F)C1CCCO1 (configuration not stated)	-2.0	i	0.85	4.7	6.7	97.3	92.5
COC(=O)CCCC(=O)N1CCCC(C(=O)c2ccc(OC)cc2C)C1 (configuration not stated)	.	i	1.03	2.6	.	.	97.5
CCc1ccccc1NC(=O)COc1cccc2ccc(C)nc12	-1.0	i	1.03	3.5	30.8	127.7	105.2
O=C(O)CC1Oc2ccc(Cl)cc2NC1=O (configuration not stated)	-0.7	i	0.85	-1.3	.	.	101.2
Cc1cccc(-c2nnc(-c3cccc(NC(=O)Cc4cccs4)c3)o2)c1	-2.5	i	0.79	-1.6	-4.2	118.7	104.8
Cc1ccc(Nc2cc(=O)[nH]c(=O)[nH]2)cc1Cl	.	i	0.91	-2.0	31.2	70.9	96.5
CC(=O)NC(CC(=O)N(C)Cc1cccc(Cl)c1Cl)c1ccccc1 (configuration not stated)	.	i	0.9	0.3	-14.3	60.2	103.3
CCOc1ccccc1C(=O)Nc1nnc(COC)s1	-1.3	i	0.973	-3.1	-376.9	115.6	112.8
CCOc1cc(C(=O)NCCOC)ccc1OC	-1.1	i	1.03	-5.4	35.3	109.7	94.8

Among those listed so far, these contain fluorine.
SMILES	GALR2 ag	HSV augment	HSV augment primary fold	PKD1 inh	Insulin prom inh	Insulin prom inh cell count	RGS16-Gao HTS
C=CCOC(=O)C1=C(C)Nc2ncnn2C1c1cc(Br)ccc1F (configuration not stated)	-4.3	i	0.93	-13.2	50.0	102.9	103.3
O=C(Nc1cc(F)ccc1F)C1CCCO1 (configuration not stated)	-2.0	i	0.85	4.7	6.7	97.3	92.5

Later entries.
SMILES	GALR2 ag	HSV augment	HSV augment primary fold	PKD1 inh	Insulin prom inh	Insulin prom inh cell count	RGS16-Gao HTS
CCOC(=O)N1CCN(C(=O)C(C)n2nc(C)n3c(cc4sccc43)c2=O)CC1 (configuration not stated)	-1.0	i	0.98	-22.1	.	.	82.0
CCOC(=O)C(NC(C)=O)(Nc1ccc(F)cc1)C(F)(F)F (configuration not stated)	-3.4	i	0.93	-7.1	.	.	119.3
CCCn1c(SCC(=O)Nc2ccc3c(c2)CCC3)n[nH]c1=O	-1.9	i	0.78	-0.1	15.4	94.9	105.8
O=c1c2ccccc2nnn1CSc1nnnn1-c1ccc(O)cc1	.	i	0.92	-2.5	.	.	99.5
O=C(Nc1ccc(F)cc1F)NC1CCN(S(=O)(=O)c2ccc(F)cc2)CC1	.	i	0.98	-1.8	.	.	98.8
Cc1cccc(-n2c(C)cc(/C=C3\C(=N)N4N=C(CC(C)C)SC4=NC3=O)c2C)c1	-1.8	i	0.98	-5.2	27.6	118.3	99.4
COc1ccc(Cc2nc(-c3ccncc3)no2)cc1	.	i	1	-5.8	.	.	115.0
COc1cc(CNC2CCCCC2)c(Br)cc1OC1CCCC1	.	i	0.78	-7.2	.	.	100.0
CCOC(=O)NC(=O)/C(N=Nc1ccc(C(F)(F)F)cc1)=C(\C)O	.	i	1.24	0.2	30.2	75.3	101.4
CCOc1ccccc1Cn1c(=O)sc2ccccc21	.	i	0.89	-1.6	.	.	99.5
O=C(N/N=C/c1ccc(Br)cc1)c1ccc(Br)o1	0.1	i	0.97	-3.7	.	.	105.3
c1ccc2c(c1)OCC(c1nnc3sc(-c4cnccn4)nn13)O2 (configuration not stated)	-1.4	i	0.97	2.2	-19.8	156.8	99.4
CN(C[C@H](CC1CCCCC1)N(C[C@H](Cc1ccccc1)N(CCc1ccccc1)N=O)N=O)N=O	.	i	1.16	-2.4	.	.	107.2
O=C(CSCCO)Nc1ccc([N+](=O)[O-])cc1	.	i	0.96	-6.0	.	.	98.9
O=C(NC(=S)Nc1ccc2c(c1)C(=O)c1ccccc1C2=O)c1ccc(F)cc1	-0.6	i	0.84	-10.7	6.7	107.1	90.8
CC1Oc2ccccc2N(CC(=O)N(Cc2ccccc2)Cc2ccccn2)C1=O (configuration not stated)	-3.0	i	0.95	3.0	-200.0	110.1	92.1
CN(CCC#N)CC(=O)Nc1ccc(S(N)(=O)=O)cc1	.	i	1.01	-1.7	.	.	98.1
Cc1ccc(S/C(=N\S(=O)(=O)c2ccc(Cl)cc2)c2ccccc2)cc1	-2.4	i	0.84	-8.5	25.6	80.8	104.1
Cc1ccc(S(=O)(=O)N(Cc2ccc(Cl)cc2)c2ccccc2C(=O)NCc2cccnc2)cc1	0.5	i	0.94	-1.2	-27.6	96.0	107.1
CCc1c(C)c(C#N)c2nc3ccccc3n2c1N(C)C	-0.7	i	0.92	-5.6	.	.	101.5
Cc1ccc(CN2C(=O)N/C(=C/c3ccc4c(c3)n(C)c(=O)n4C)C2=O)cc1	.	i	0.85	2.7	50.0	84.1	112.6
O=C(NNC(=S)Nc1ccccc1)Nc1ccccc1	.	i	0.9	7.7	.	.	97.8
CCCOc1ccc(C(=O)NCCc2ccccc2)cc1	.	i	1.01	-4.6	.	.	105.0
CCCCCSc1nncc(=O)[nH]1	-1.1	i	0.93	-7.7	0.0	165.0	97.0
COc1cccc(C2=CC(c3cccc(OC)c3OC)n3nnnc3N2)c1 (configuration not stated)	-1.8	i	0.933	-2.0	.	.	100.3
O=C(O)c1ccccc1S(=O)(=O)NCC(O)COC1CCCCC1 (configuration not stated)	-1.0	i	0.85	-13.6	.	.	102.4
COc1cc2c(cc1OC)CN(CC(=O)NC(=O)NCc1ccccc1)CC2	.	i	0.97	-0.9	.	.	104.8
CCOC(=O)c1c(NC(=O)CN2C(=O)NC3(CCCCC3C)C2=O)sc(C)c1C (configuration not stated)	1.0	i	0.75	-14.6	26.7	103.5	81.9
Cn1c(=O)c2c(-c3ccc(C(C)(C)C)cc3)n(CC3CCCO3)cc2n(C)c1=O (configuration not stated)	-1.2	i	1.09	-1.7	8.1	172.3	102.3
Cc1cccc(OCC2CCCN(Cc3nc(C4CC4)no3)C2)c1 (configuration not stated)	.	i	1.2	6.7	38.9	103.9	97.9
Cc1ccccc1OCC(O)Cn1nnc2ccccc21 (configuration not stated)	0.0	i	0.96	3.9	-44.4	161.0	97.1
CCC(C(=O)NCc1ccco1)N(C(=O)CNS(=O)(=O)c1ccc(C)cc1)c1ccccc1OC (configuration not stated)	-0.5	i	0.86	-0.1	-39.4	98.1	92.4
CC(=O)Nc1ccccc1C(=O)C(=O)Nc1cccc(C(=O)NCc2ccccc2)c1	-0.7	i	1.03	1.4	0.0	83.3	106.5
CC(=O)N1CCc2cc(S(=O)(=O)NCCC(=O)Nc3cc(C)cc(C)c3)ccc21	-0.6	i	0.987	-1.9	-56.2	186.2	102.4
CCN(Cc1ccncc1)Cc1cn(C)nc1-c1ccc(Oc2ccccc2)cc1	.	i	0.99	8.8	.	.	95.1
COC(=O)N(C)CCCC1(C)C(=O)N(C)c2ccc(O)cc21 (configuration not stated)	-2.1	i	0.9	6.6	0.0	222.6	107.0

2 records drawn at random from those above:
SMILES	GALR2 ag	HSV augment	HSV augment primary fold	PKD1 inh	Insulin prom inh	Insulin prom inh cell count	RGS16-Gao HTS
O=C(O)c1ccccc1S(=O)(=O)NCC(O)COC1CCCCC1 (configuration not stated)	-1.0	i	0.85	-13.6	.	.	102.4
Cn1c(=O)c2c(-c3ccc(C(C)(C)C)cc3)n(CC3CCCO3)cc2n(C)c1=O (configuration not stated)	-1.2	i	1.09	-1.7	8.1	172.3	102.3

Later entries
SMILES	GALR2 ag	HSV augment	HSV augment primary fold	PKD1 inh	Insulin prom inh	Insulin prom inh cell count	RGS16-Gao HTS
O=C(N1CCOCC1)C(F)(F)C(F)(F)C(F)(F)C(F)(F)C(=O)N1CCOCC1	-1.4	i	0.96	-13.0	.	.	104.1
COc1ccc(C(=O)N/N=C/c2ccccn2)cc1OC	.	i	1.01	1.1	-25.0	173.6	103.8
COCCCn1c(SCC(=O)N2CCCCC2C)nnc1-c1ccco1 (configuration not stated)	-0.9	i	0.92	-5.0	.	.	100.5
Cc1cccc(C)c1OCc1nnc(SCC(=O)Nc2ccccc2F)o1	-1.3	i	0.95	-13.2	.	.	103.4
O=C(CN1C(=O)C(=O)N(Cc2ccco2)C1=O)NC1CCCCC1	.	i	0.89	4.9	66.7	173.7	105.4
NC(N)=N/N=C/c1cccc(Cl)c1Cl	.	i	0.55	-9.3	.	.	107.8
CCCOc1nc(SCCC)nc2c1cnn2-c1ccccc1	.	i	1.06	.	.	.	98.8
CCN1CNC(=S)N(c2cc(C)ccc2C)C1	-2.0	i	0.94	2.0	-18.4	79.5	99.4
NC(=O)C1CCN(C(=O)N2c3ccccc3Sc3ccccc32)CC1	-0.6	i	0.91	-16.0	.	.	98.5
CCC(C)(C)n1nnnc1CN1CCc2ccccc21	-0.4	i	1.04	-5.9	50.0	77.6	99.5
CCc1ccccc1NC(=O)C1CC(c2ccc(F)cc2)=NO1 (configuration not stated)	-0.8	i	0.99	-7.2	-2.6	233.5	102.3
CN(C)S(=O)(=O)c1cccc(NC(=S)Nc2ccc(Cl)cc2Cl)c1	-0.2	i	0.93	-1.0	-11.9	128.3	101.0
COc1ccccc1/C=C/C(=O)NC(=S)Nc1ccc(S(=O)(=O)N(C)c2ccccc2)cc1	-1.4	i	0.77	-8.5	53.6	92.4	95.8
CCc1ccc(C2=NN(S(C)(=O)=O)C(c3cccs3)C2)cc1 (configuration not stated)	-0.2	i	0.82	-8.3	-441.7	108.9	98.8
COc1ccc(O)c(/C=N/Nc2nc3ccccc3[nH]2)c1	.	i	0.89	6.2	30.2	52.4	100.7
Cc1cc2nc3c(nc2cc1C)C1(C(=O)O)CCC3(C)C1(C)C (configuration not stated)	-0.8	i	0.86	-7.3	-38.9	39.3	101.3
NC(=O)C1CCN(CC(=O)Nc2ccccc2Sc2ccc(Cl)cc2)CC1	1.6	i	0.9	-2.4	.	.	110.2
Nc1nc(CN2CCOCC2)cs1	-2.4	i	0.98	-2.0	10.3	95.3	101.8
O=C(NC1CCCC1)C(c1ccccc1)N(C(=O)c1ccno1)c1cccnc1 (configuration not stated)	0.7	i	1.08	-2.8	.	.	100.1
COc1ccc(NC(=O)c2nc[nH]c2C(=O)N2CCN(C(=O)OC(C)(C)C)CC2)cc1	.	i	0.99	.	.	.	105.3
